Screening results deposited in PubChem BioAssay by several laboratories.
eIF4H FP inh – inhibitors of RNA binding by human eIF4H; Q15056; eIF4H fluorescence polarization binding assay; inhibition, % at 35 µM; 290,000 compounds, 0.94% hits; AID 2012;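 active = 50% or more with normal probe brightness, or confirmed in later tests; about a fifth of its hits are not listed in these tables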;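 note: calls also rest on retests at 20 µM and on dose response follow-up; 0% = protein and probe with vehicle and 100% = probe without protein; strong numbers were not always called active; many hits fall short of the cut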
CSC inhib – blocks cancer stem cells; cancer stem cell-like cells viability, luminescence; inhibition, % at 7.5 µM; 300,000 compounds, 1.1% hits; AID 2717;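 active = mean at 75% or more and at least half the replicates too; tested in HMLE shEcad cells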;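 note: 0% = median of negative and 100% = median of positive control wells; the first replicate is given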
Rce1 inh – inhibitors of yeast Ras-converting enzyme | Q03530 | yeast membranes, quenched prenylated peptide cleavage fluorescence | calls only | 290,000 compounds, 0.27% hits | AID 2563;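 active = fall in fluorescence gain of 50% or more versus controls, with final raw signal at or below 3038400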;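 note: plate controls were neutral control wells for no effect and wells lacking membranes for full effect; tested at 10 µM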
UUG fidelity – modulators of start codon recognition fidelity in yeast; activity score, % at 18.7 µM; S. cerevisiae UUG-firefly luciferase reporter, luminescence/redox ratio; 350,000 compounds, 0.13% hits;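 active = replicate mean at a twofold rise or more, about +100% in these data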;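 note: firefly luciferase made from a UUG start codon reports start codon fidelity; reporter light over untreated wells divided by growth signal over untreated wells; some hits fall short of that in this replicate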
Env fusion inh – inhibitors of HIV Env-mediated cell fusion. HeLa-JRFL Env/CEM21 cell fusion, luciferase. inhibition, % at 12.3 µM. 360,000 compounds, 1.1% hits. AID 651610;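 active = mean replicate inhibition score of at least 50 and every replicate individually at or above 50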;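 note: 0% = plate neutral controls and 100% = maraviroc near 300 nM; one replicate is shown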
MT1-MMP act inh – MT1-MMP (human) activation inhibition. 360,000 compounds, 0.061% hits. P50281. AID 651647. GFP/RFP ratio change, % at 20 µM. HT1080 RFP-PRO-GFP cells, GFP/RFP ratio fluorescence, overnight; percent of plate control window, DMSO zero;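 active = GFP/RFP ratio change of at least 30% with cell ATP level not reduced by more than half and red fluorescence within 50% of control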; note: strong numbers were not always called active
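Material: RFP-PRO-GFP reporter HT1080 cells. Dosing: single-point 20 µM compound, 1% DMSO. Controls: DMSO and RFP-L50D-GFP cell wells. Timing: cells overnight before dosing, compound overnight, 37 °C, 5% CO2. Measure: GFP/RFP fluorescence ratio.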
PABP polyA inh – blocks human PABP binding to poly(A) RNA; fluorescence polarization; inhibition, % at 35 µM; 290,000 compounds, 1% hits; AID 2014;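 active = 50% or more with normal probe brightness, or confirmed in later tests; about a fifth of its hits are not listed in these tables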;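 note: calls also rest on retests at 20 µM and on dose response follow-up; controls were probe without protein and protein plus probe with vehicle; some compounds called inactive have numbers as strong as hits; many hits fall short of the cut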
Target sequence (P11940 whole entry, looked up): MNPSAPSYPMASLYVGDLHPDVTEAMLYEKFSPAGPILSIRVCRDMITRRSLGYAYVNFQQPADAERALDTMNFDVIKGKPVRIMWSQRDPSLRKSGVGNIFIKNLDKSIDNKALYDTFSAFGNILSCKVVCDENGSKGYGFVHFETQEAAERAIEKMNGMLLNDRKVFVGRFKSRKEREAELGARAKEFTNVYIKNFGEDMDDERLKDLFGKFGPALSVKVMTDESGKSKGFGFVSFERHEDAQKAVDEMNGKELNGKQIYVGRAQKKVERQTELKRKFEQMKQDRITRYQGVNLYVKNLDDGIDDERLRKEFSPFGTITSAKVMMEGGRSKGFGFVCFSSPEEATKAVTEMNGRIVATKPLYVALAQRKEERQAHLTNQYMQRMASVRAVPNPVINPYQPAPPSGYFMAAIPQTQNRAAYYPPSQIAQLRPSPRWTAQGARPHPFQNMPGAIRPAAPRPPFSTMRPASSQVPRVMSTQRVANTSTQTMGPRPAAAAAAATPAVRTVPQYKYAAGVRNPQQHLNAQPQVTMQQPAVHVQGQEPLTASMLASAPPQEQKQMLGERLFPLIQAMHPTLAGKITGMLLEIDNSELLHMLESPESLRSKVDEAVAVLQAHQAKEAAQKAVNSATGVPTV
eIF4H FP inh retest – also measured in eIF4H FP inh; calls as there; inhibition, %; compound at 20 µM; confirmation average;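 mean of two retest wells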
PABP polyA inh retest – second read-out of PABP polyA inh, no call of its own (marks repeat the call); inhibition, %; compound at 20 µM; confirmation repeats;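 mean of two retest wells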
MT1-MMP act inh RFP – further read-out of MT1-MMP act inh, marked with its call; RFP signal change, %; measured here: RFP expression control read;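 0 = vehicle wells; hits needed this value within 50% of zero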
* = called active by the depositor; i = inactive; nt = no result given. An excerpt. The share of hits here may be higher or lower than overall.

SMILES	eIF4H FP inh	CSC inhib	Rce1 inh	UUG fidelity	Env fusion inh	MT1-MMP act inh	MT1-MMP act inh RFP	PABP polyA inh	others
CCNC(=O)COC(=O)c1[nH]c(C)c(C(=O)OC)c1C	6	-12	i	-9	-11	2	4	-7
CCOC(=O)C(C)(C)Sc1ncnc2nc[nH]c12	-10	-16	i	-21	16	3	5	-5
CSc1ccc(-c2nnn(Cc3ccc(Br)cc3)n2)cc1	-1	11	i	-10	-70	0	-4	3
NC1=NC(=O)C2(COC(c3cccc([N+](=O)[O-])c3)OC2)S1 (stereo not drawn)	-9	9	i	nt	13	1	-4	-1
COc1ccc(-c2nc(N)nc(C(F)(F)F)c2-c2ccccc2OC)c(O)c1	9	1	i	2	14	1	5	7
CCN(CC)CCCN(Cc1cc2cc(OC)c(OC)cc2[nH]c1=O)C(=O)Nc1ccccc1	-1	14	i	3	-82	-17	-11	-4
CCOC(=O)C1CCCN(c2nc3ccccc3nc2C(C#N)C(=O)OC(C)C)C1 (stereo not drawn)	-6	-12	i	nt	8	nt	nt	6
COc1cc2c3c(c1)C(C)CC(C)(C)N3C(=O)C2=O (stereo not drawn)	-4	6	i	1	60*	2	1	5
CCCn1c(SCC(=O)Nc2cc(C)on2)n[nH]c1=O	nt	-2	nt	-16	nt	2	1	nt
COc1ccc(NC(=O)COc2ccc(C(=O)OCC(=O)N(C(C)C)C(C)C)cc2OC)cc1	2	nt	i	11	10	1	-2	9
CCOc1cc(N2C(=O)CC3CS(=O)(=O)CC32)c(OCC)cc1NC(=O)c1ccccc1 (stereo not drawn)	-9	16	i	-4	nt	-3	-2	-5
COc1ccccc1NC(=O)Nc1nc(CC(=O)NCc2cccnc2)cs1	nt	nt	i	-13	-4	4	1	nt
CCOC(=O)c1ccc(S(=O)(=O)NNC(=O)COc2cccc(C)c2)cc1	0	nt	i	-15	-10	1	3	-13
CC(=O)c1ccc(NC(=O)COc2ccc3c(c2)OCO3)cc1	2	-13	i	nt	15	3	4	2
COc1ccc(CN2CCN(C(=O)c3ccc(S(=O)(=O)NCc4ccco4)cc3)CC2)cc1	nt	nt	nt	-32	39	-2	-28	nt
COc1cc(OC)cc(-c2c(C#Cc3ccsc3)c3cc(-c4ccc(OC)c(F)c4)ccc3n2C)c1	nt	nt	nt	-9	18	-3	5	nt
CCOC(=O)c1c(NC(=S)NCCc2ccccc2)sc2c1CC(C(C)C)OC2 (stereo not drawn)	-1	46	i	1	3	-8	-1	52	eIF4H FP inh retest=-2;PABP polyA inh retest=7
O=C(NCCN1C(=O)S/C(=C\c2cccnc2)C1=O)c1cccc(OC(F)F)c1	8	-7	i	nt	-4	-2	0	-11
CCCCCCCCCC1NC(C(=O)O)Cc2c1[nH]c1ccccc21 (stereo not drawn)	nt	nt	nt	-16	-3	-2	-3	nt
COc1ccc(NC(=O)/C(C#N)=C/c2ccc(Sc3nncn3C)c([N+](=O)[O-])c2)cc1	-8	7	i	nt	-15	-4	-6	1

Brought forward from above: two compounds, followed by the next part.
SMILES	eIF4H FP inh	CSC inhib	Rce1 inh	UUG fidelity	Env fusion inh	MT1-MMP act inh	MT1-MMP act inh RFP	PABP polyA inh	others
CCCCCCCCCC1NC(C(=O)O)Cc2c1[nH]c1ccccc21 (stereo not drawn)	nt	nt	nt	-16	-3	-2	-3	nt
COc1ccc(NC(=O)/C(C#N)=C/c2ccc(Sc3nncn3C)c([N+](=O)[O-])c2)cc1	-8	7	i	nt	-15	-4	-6	1
Clc1ccc(-c2nc(Cc3ccccc3Cl)no2)cc1	-5	-27	i	-7	nt	-2	-1	-5
CCN1CCN(CC(O)COc2ccc(Cl)cc2)CC1 (stereo not drawn)	0	-14	i	-4	nt	3	1	26
Cc1ccc(-c2[nH]nc3c2C(c2ccccc2OC(=O)N2CCOCC2)C(C#N)=C(N)O3)cc1 (stereo not drawn)	-6	-3	nt	nt	5	nt	nt	1
CC(=O)c1ccc(NC(=O)CSc2nnc(Cc3cccn3C)n2-c2ccc(F)cc2)cc1	-11	-18	i	-2	-9	0	0	-2
O=C(Nc1cc(Cl)ccc1O)c1cc(-c2ccco2)on1	-4	16	i	-2	-43	1	0	14
Cc1cccc(N2CCN(C(=O)c3cnn4c(C(F)F)cc(-c5ccccc5)nc34)CC2)c1C	-6	nt	i	-21	20	-9	-6	4
COC(=O)c1nc(N)sc1-c1ccc(OC)cc1	1	2	i	7	4	2	3	0
COc1ccc(N(CC(=O)NCCc2ccccc2)C(=O)CCC(=O)Nc2nccs2)cc1	-19	0	i	-19	1	-3	-1	-8
Cc1cc(C)n2nc(C(=O)Oc3ccc4c(c3)OCO4)nc2n1	2	-3	nt	-23	-75	1	4	6
COC(=O)c1ccccc1NC(=S)N1CCC(N2CCCCC2)CC1	1	-12	i	nt	6	-2	1	-12
CN(Cc1ccccc1)C(=O)c1ccccc1Br	11	13	i	nt	7	-3	3	6
CC1=C(C(=O)Nc2cccc(C(=O)N3CCN(c4cccc(C(F)(F)F)c4)CC3)c2)SCCO1	-11	17	i	-6	-10	-1	-7	4
O=C(O)c1ccc(NC(=O)c2ccc(Cl)cc2)c(NC(=O)c2ccc(Cl)cc2)c1	2	nt	i	-8	-2	2	5	8
CCCNC(=O)c1onc(CSc2cccc(OC)c2)c1C(=O)NCCC	-7	-13	i	-13	22	-1	1	6
Cc1c(C=O)c2ccccc2n1CCOc1ccccc1	-6	10	i	-14	-51	8	-11	3
CC(=O)Nc1ccc(NC(=O)C2(C)Cc3c(-c4ccc5c(c4)OCO5)ccnc3O2)cc1 (stereo not drawn)	nt	nt	nt	-7	4	1	2	nt
Cc1cccc(C)c1NC(=O)C(C)c1ccc(-c2ccccc2)c(F)c1 (stereo not drawn)	1	30	i	-11	nt	-7	-14	13
CC(C)CCNC(=O)CN(Cc1ccc2c(c1)OCO2)C(=O)Cn1nnc(-c2cccs2)n1	2	nt	i	-13	nt	-1	0	-4
COc1ccc(CCNC(=O)c2oc3ccccc3c2C)cc1	nt	-6	nt	-13	nt	3	3	nt
OC[C@@H]1CN(Cc2ccccc2)C[C@H](n2cnc3c(NCc4ccc(F)cc4)ncnc32)O1	nt	nt	nt	-10	-5	-1	3	nt
c1ccc2c(c1)CCN(c1nc3cc4c(cc3s1)OCO4)C2	-8	16	i	-26	i	4	2	-2
O=C1C[C@H]2CCCCC(=O)N3CC[C@@H](C1)[C@@H]23	nt	nt	nt	-18	-64	1	4	nt
CCCOC(=O)c1c(-c2ccc(OC)cc2)oc2ccc(-c3ccc(OC)nc3)cc12	3	7	i	15	25	-5	-5	-2
O=C1CC(C(=O)Nc2cccc(F)c2)n2c(nc3ccccc32)N1 (stereo not drawn)	70	-9	i	-16	-50	2	-2	-3	eIF4H FP inh retest=5;PABP polyA inh retest=10
O=C(c1ccccc1)N1CCN(c2nc3ccc([N+](=O)[O-])cc3s2)CC1	7	14	i	nt	-5	-3	-20	-4
COc1ccc(/C=N/Nc2ncnc3c2[nH]c2ccccc23)c(OC)c1OC	-4	1	i	-10	12	9	9	-1
COc1ccccc1/C=C(/CC(=O)NCc1ccc2c(c1)OCO2)c1nc2ccccc2s1	4	37	i	nt	7	-8	-5	4
CCC(CC)C(=O)N1N=C(c2ccc(NS(C)(=O)=O)cc2)CC1c1ccccc1 (stereo not drawn)	-8	-8	i	nt	14	-8	-6	-17
O=C(CSc1ccccc1C(=O)O)NCc1ccco1	-19	11	i	-13	-69	1	9	-4
Cc1ccc(C(C)(O)CS(=O)(=O)Cc2ccccc2)cc1 (stereo not drawn)	-5	-10	i	-10	-4	-4	-2	7
CCOC(=O)C1=C(C)NC(=NC)SC1c1ccccc1 (stereo not drawn)	-8	5	i	nt	-2	1	4	-8
OC(CN1CCOCC1)(c1ccccc1)c1ccccn1 (stereo not drawn)	6	-10	i	-12	2	-1	5	10
Cn1cnnc1SCC(=O)Nc1ccc(F)cc1F	1	-9	nt	nt	-1	1	2	0
COc1ccc(C2Nc3ccccc3C(=O)N2NC(C)=O)cc1OC (stereo not drawn)	-12	-6	i	nt	-1	1	3	12
Cc1nn2c(-n3ccnc3C)c3c(nc2c1-c1ccccc1)CCC3	10	nt	i	-5	23	-1	-2	4
Cc1ncoc1C(=O)N1CCCC(C(=O)c2cccc3ccccc23)C1 (stereo not drawn)	6	-11	i	nt	8	3	-2	-7
Cc1ccc(-c2noc(C3CCCN(C(=O)c4ccc(Cl)cc4)C3)n2)o1 (stereo not drawn)	-6	-10	nt	-17	10	0	-4	2
Cc1ccc(N2CCN(CC(O)COc3cccc(C)c3)CC2)cc1 (stereo not drawn)	0	12	i	-19	-17	-2	0	14
CCc1ccc(CNC(=O)c2ccc(OC)c(OC3CCN(C(C)C)CC3)c2)nc1	2	-12	nt	-29	-7	0	0	1
CCOc1ccc(N2Nc3n[nH]c(N)c3N2)cc1	-2	4	i	-24	-206	4	-1	-10
O=S(=O)(NC(=S)NC1CCCCC1)c1ccc(Br)cc1	-11	10	i	-33	-8	0	0	-7
COc1cc(/C=N/Nc2ccc(C)cc2)cc(Br)c1O	-12	50	i	5	6	-6	-2	-13
Cc1ccccc1C(=O)Nc1nc(-c2cccnc2)cs1	28	-17	i	-17	14	-1	4	21
COc1ccc2cc(Br)ccc2c1CC(=O)NC(C)(C)C	6	20	i	-21	11	-3	-3	-4
COCCCNC(=S)NNC(=S)Nc1ccc(F)cc1F	-1	0	i	-36	-171	6	2	5
CN1CCN(c2ccc(NC(=O)c3cccc(OCc4ccccc4)c3)cc2)CC1	-1	51	i	-30	nt	-1	-4	-6
NC(c1csc(NC(=O)Nc2cccc(Cl)c2)n1)c1ccccc1Cl (stereo not drawn)	nt	nt	nt	-9	76*	-5	-5	nt
CCOC(=O)C1CCCN(c2ncnc3c2cnn3-c2cccc(C)c2)C1 (stereo not drawn)	-9	-9	i	12	10	-3	1	-6
O=C(CCc1ccccc1)NN1C(=O)C2C3C=CC(O3)C2C1=O (stereo not drawn)	-3	-1	i	nt	3	3	4	-4
O=C(CSc1nc(C2CCCCC2)n(-c2ccccc2)n1)NCCN1C(=O)CSC1=O	4	21	i	-15	-44	-1	1	4
CCCS(=O)(=O)NC(=O)C1(C)CCN(C(=O)c2c(C)noc2C)C1 (stereo not drawn)	nt	nt	nt	-27	4	1	7	nt
O=C(O)c1oc2ccccc2c1CN1CCN(c2ccccc2)CC1	1	14	i	-12	nt	4	1	12
CCOC(=O)c1ccc(-c2c(C)cc3oc(=O)cc(-c4ccccc4)c3c2C)cc1	nt	nt	nt	-14	15	-10	-15	nt
CC(C)(C)C(=O)CN1C(=O)NC2(CCOc3ccccc32)C1=O (stereo not drawn)	8	nt	i	-1	-1	-1	3	-2
COc1cccc(C(=O)NNC(=O)/C=C/c2ccccc2)c1	-2	-3	i	-9	3	-1	1	0
CCOc1ccc(/C=N/OCC(=O)NCc2cccs2)cc1	-3	-10	i	-13	-2	2	0	-1
CC(C)CNC(=S)NC(=O)c1ccc(Cl)cc1Cl	4	-8	i	nt	-24	-2	-5	8
Cc1ccc(NC(=O)c2ccc(C)cc2)cc1	nt	-6	i	-50	-128	0	0	nt
O=C(Cc1ccc(Br)cc1)N(Cc1ccccc1)c1ccccn1	-6	0	i	-7	26	-4	-4	-6
COc1ccc(NC(=O)COC(=O)[C@@H](NC(=O)c2c(F)cccc2F)C(C)C)cc1	1	12	i	nt	5	4	5	-2
CCOc1ccc(C(=O)Cc2cc(OC)c(OC)cc2[N+](=O)[O-])cc1	-15	nt	i	-18	nt	0	3	-7
